High-throughput results deposited in PubChem by Fisher Drug Discovery Resource Center.
NPYLR7 ag = activates Aedes aegypti NPYLR7 receptor; HEK293T NPYLR7/Galpha15, GCaMP6s calcium fluorescence; activation, % at 10 µM; 270,000 compounds, 0.15% hits; in the data active = activation above about 40%;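 note: 0% = vehicle and 100% = reference agonist at the receptor; some compounds past the cut are filed as inactive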
NPYLR7 ag max-min = second read-out of NPYLR7 ag, no call of its own (marks repeat the call); activation, %; measured here: Max-Min RFU normalised activation; some inactives read as strong as hits;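 span of the calcium signal over five minutes; 0% = vehicle and 100% = native peptide agonist; compound fluorescence can raise it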
* marks the source's active call; other numbers are inactive results; & = joins results of further samples.

SMILES	NPYLR7 ag	NPYLR7 ag max-min
Cc1ccc(CN2CCN(C(=O)CCN3C(=O)c4ccccc4C3=O)CC2)cc1	0	-2
Cc1cc2nnc(SCC(=O)NCCC(C)C)n2c2ccccc12	-2	-7
COCCN(Cc1c(-c2ccccc2)noc1N1CCN(C)CC1)C(=O)c1ccco1	14	15
O=C(Cc1cnn(-c2ccccc2)c1)NCCC(=O)N1CCCc2ccccc21	-5	-4
CCNC(=O)C1(C)CCN(Cc2ccc(C#N)cc2)C1 (stereo not given)	0	1
CCC(C)(C)NC(=O)C1CC(=O)N(N(C)c2ccccc2)C1 (stereo not given)	-2	-2
Cc1cccc(OCC2=NN3C(=N)/C(=C\c4ccc(OS(C)(=O)=O)cc4)C(=O)N=C3S2)c1	-1	-2
O=C(Cc1ccc(Cl)cc1)NC1CC2CCC(C1)N2CCc1ccccc1 (stereo not given)	3	2
CCOc1ccccc1Nc1nnc(SCC(=O)N(C)C2CCCCC2)s1	0	5
O=C1N[C@@H]2CCN(C(=O)C3CCCCC3)[C@@H]2C(=O)N1Cc1ccccc1	-9	-21

The list goes on; it opens with the 4 that closed the last part.
SMILES	NPYLR7 ag	NPYLR7 ag max-min
Cc1cccc(OCC2=NN3C(=N)/C(=C\c4ccc(OS(C)(=O)=O)cc4)C(=O)N=C3S2)c1	-1	-2
O=C(Cc1ccc(Cl)cc1)NC1CC2CCC(C1)N2CCc1ccccc1 (stereo not given)	3	2
CCOc1ccccc1Nc1nnc(SCC(=O)N(C)C2CCCCC2)s1	0	5
O=C1N[C@@H]2CCN(C(=O)C3CCCCC3)[C@@H]2C(=O)N1Cc1ccccc1	-9	-21
COc1ccc(CCOC(=O)C2CCCCN2C(=O)CCC(=O)c2ccc(F)cc2)cc1OC (stereo not given)	-6	-13
CC(=O)c1cccc(Oc2nc(C)cc(C)n2)c1	6	1
CCCC(=O)NCCOc1ccc2nnc(-c3cccc(OC)c3)n2n1	-11	-18
COc1ccc(-c2nn(-c3cc(C)ccc3C)c(OC(C)=O)c2-c2ccc(NC(=O)C3CC3)cc2)c(OC)c1	0	7
CCOCCn1c(=O)c2c(nc3n2CCCN3c2ccc(F)cc2)n(C)c1=O	-5	-6
COc1ccc(-c2csc(-n3[nH]c(-c4ccccc4)c(N=Nc4ccc(NC(C)=O)cc4)c3=O)n2)cc1	22	30
CCOc1nc(-c2ccc(C(F)(F)F)cc2)n(-c2ccc(NC(=O)Nc3ccc(OC)cc3)cc2)n1	2	7
COc1ccccc1/C=C/CN1C[C@H](N(C)C)C[C@H]1CO	8	6
CC(C)S(=O)(=O)N1CCC(C(NC(=O)c2ccc(F)cc2)C(=O)N2CCOCC2)CC1 (stereo not given)	3	11
CC1(C)CC(Nc2ncnc3[nH]ncc23)CC(C)(C)N1	2	0
CCn1ncc(C(=O)NCC(c2sccc2C)N(C)C)c1C (stereo not given)	-7	-8
CCCC(=O)N1CCC(NC(C)c2ncccc2C)CC1 (stereo not given)	5	1
CSCC(=O)N1CCC(CCC(=O)NC2CCN(Cc3ccccc3)C2)CC1 (stereo not given)	14	17
CCOc1cccc(N2CCN(C(=O)c3ccc([N+](=O)[O-])cc3)C(C)C2=O)c1 (stereo not given)	22	27
Cc1ccc(F)cc1S(=O)(=O)N1CCC(CO)(CCc2ccccc2)CC1	4&3	1&-2
CCOC(=O)CC(=O)N1CCC(c2nc(-c3ccc(Cl)cc3)no2)CC1	-6	-9
Cc1ccc(-c2ccnc(N3CCC4(CC3)CNC(=O)C4)n2)c(C)n1	1	-1
c1cc(C2CN(c3nccc4occc34)C2)ccn1	12	11
COc1ccc(NC(=O)COc2cc(C)nc(N3CCc4ccccc4C3)n2)cc1Cl	1	5
N#CC(C(=O)N1CCOCC1)C(=S)Nc1ccccc1 (stereo not given)	2	0

Entries shown so far containing a cyano group (two):
SMILES	NPYLR7 ag	NPYLR7 ag max-min
CCNC(=O)C1(C)CCN(Cc2ccc(C#N)cc2)C1 (stereo not given)	0	1
N#CC(C(=O)N1CCOCC1)C(=S)Nc1ccccc1 (stereo not given)	2	0

(more compounds)
SMILES	NPYLR7 ag	NPYLR7 ag max-min
COc1ccc(NC(=O)C2(NC(=O)C3CC(=O)N(C(C)C)C3)CCCC2)cc1OC (stereo not given)	5	3
COc1ccccc1C(=O)N1CCN(c2nc(Cc3ccc(C)cc3)nc3onc(-c4cccnc4)c23)CC1	20	7
Cc1ccc(Cn2nnc3c(=O)n(Cc4ccc(C(F)(F)F)cc4)cnc32)cc1	2	5
O=C(C1CCCCC1)N(CCN1CCOCC1)c1nc2ccc(Cl)cc2s1	17	12
Cc1noc(-c2cccs2)c1C(=O)NCCC1(C)OCCO1	20	22
Cn1c(C(=O)N2CCC3(C=Cc4ccccc43)CC2)cc2ccccc21	4	3
O=C(Nc1ccon1)c1cn(Cc2cccc(F)c2)nc1OCc1cccc(F)c1	13	3
C=CCCC(=O)N1CCC(c2cn(Cc3ccc(C(F)(F)F)cc3)c3ccccc23)CC1	26	13
C=CCN1C(=O)C(Cc2ccc(OC)cc2)S/C1=N/N=C\c1cccs1 (stereo not given)	88*	83*
COc1cccc(NC(=O)CSc2ncc(S(=O)(=O)c3ccc(C)c(Cl)c3)c(=O)[nH]2)c1	4	3
CCc1noc(CN(CC)C(=O)c2ccccc2N2CCCC2)n1	0	-8
COC(=O)c1ccccc1NC(=O)CSc1nc2c(-c3ccccc3)c[nH]c2c(=O)n1C(C)C	-2	-4
Cc1cccc(C)c1NC(=O)CN1C(=O)c2ccccc2S1(=O)=O	1	0
CN(Cc1nc(Cc2cccc(C(F)(F)F)c2)no1)CC(O)c1ccccc1 (stereo not given)	2	-3
Fc1ccc(-c2cc3ncnc(NCc4cccnc4)c3s2)cc1	6	8
CC(C)(C)c1ccc(NS(=O)(=O)c2ccc(F)cc2F)cc1	-21	-23
Cc1ccc(NC(=O)CSCc2nc3ccccc3nc2C)cc1C	-3	-5
Cc1ccsc1CN(Cc1c(C)n(C)n(-c2ccccc2)c1=O)CC(C)C	3	15
Cc1nn(C)c(C)c1NC(C)C(=O)Nc1cc(C(F)(F)F)ccc1N1CCOCC1 (stereo not given)	8	2
COCCC(C)NC(=O)Nc1cc(C(C)C)nn1-c1ccc(C)cc1 (stereo not given)	-1	-3
Cc1ccc(NCCN2CCN(c3ccc(F)cc3)CC2)nc1	1	1
CC1CCN(c2ccc(NC(=O)Nc3cccc(C#N)c3)cc2C(=O)NC(C)c2ccccc2)CC1 (stereo not given)	18	19
O=C(O)c1ccc(Br)cc1Oc1ccc(F)cc1	10	4
Cc1[nH]c2ccccc2c1CC(=O)NC(C)c1nncn1C(C)C (stereo not given)	-6	-9
O=C(Cn1nc2c(c1NC(=O)CC1CCCCC1)CSC2)NCc1ccco1	-5	2
Cc1cccc(C(CNC(=O)c2nc[nH]c2C)N(C)C)c1 (stereo not given)	0	0
O=C(NC1CCc2ccccc21)c1coc(COc2ccc3c(c2)OCO3)n1 (stereo not given)	5	7
Cc1ccccc1C(=O)N(CC(=O)N(CCc1c[nH]c2ccccc12)Cc1ccc(Cl)c(Cl)c1)C1CC1	4	-2
COCc1c(Br)c(C)nc(OCC(=O)N/N=C\c2ccc(Cl)cc2)c1C#N	-8	-11
COc1ccccc1-c1cccc(C(=O)N2C[C@@H]3[C@H](C2)[C@H]2CC[C@@H]3O2)c1	5	0
Cc1ccc(N2CCN(CC(=O)N3CCN(c4ccccc4O)CC3)C2=O)cc1	-1	-3
O=C(NC(c1ccc(-c2ccccc2)cc1)c1cnccn1)C1CCN(CCOc2ccc3ccccc3c2)CC1 (stereo not given)	4	0
CN(CCC(=O)Nc1cccc(-c2ccc(=O)[nH]n2)c1)c1ccccc1	12	6
COc1ccccc1NC(=O)N1CCc2cc(OC)c(OC)cc2C1CNC(=O)c1ccc(Cl)cc1 (stereo not given)	14	15
Cc1cc(=O)n2[nH]c(C(F)(F)F)c(-c3ccc(Cl)cc3)c2n1	-4	-5
O=C(O)CCC(=O)N1N=C(c2ccc([N+](=O)[O-])cc2)CC1c1ccccc1Cl (stereo not given)	-1	-10
Cc1nc2cc(NC(=O)c3cccc([N+](=O)[O-])c3)ccc2n1-c1ccccc1	-7	-8
CC(C)c1nnc(-c2cc3ccccc3[nH]2)o1	0	0
O=C1NCCN2CCN(C(=O)c3ccc(-n4ccnc4)cc3)CC12 (stereo not given)	9	3
Cc1ccc(C)c(-n2c(CNC(=O)c3ccc(S(=O)(=O)N4CCCC4)cc3)nnc2SCC(=O)Nc2nccs2)c1	10	8
O=C(C1CCCCC1)N1CCN(Cc2ccc3c(c2)OCO3)CC1	5	1
Cc1ccc(C(C)C)c2c1CCC(C)(O)C2O (stereo not given)	-12	-19
CC(C)n1nc(-c2ccccc2)cc1NC(=O)CCn1cncn1	5	5
COC1(OC)N=C(N)C2(C#N)C(c3cccc(Oc4ccccc4)c3)C12C#N (stereo not given)	-1	-5
Cc1cccc(C)c1NC(=O)CN1CCN(C(C)CCc2ccccc2)CC1 (stereo not given)	0	-2
CCN(CCNC(=O)c1c(C)nn(Cc2ccc(F)cc2)c1Cl)C(C)C	15	11
O=C1NCCN2CCN(Cc3ccccc3OC(F)(F)F)CC12 (stereo not given)	1	-2
Cc1cc(C)cc(NC(=O)CSc2nccn(-c3ccc(F)cc3)c2=O)c1	0	-6
C[C@H]1C(=O)N(C)CCN1c1nc2nonc2nc1NCc1cccs1	12	6
c1cc(-c2cnccn2)c2cccnc2c1	2	0

New compounds follow.
SMILES	NPYLR7 ag	NPYLR7 ag max-min
CC12CCC(C(=O)Nc3nccs3)(CC1=O)C2(C)C (stereo not given)	0	3
Cc1ccccc1NCc1cccc2c1OCO2	19	8
NC(=O)Cc1cn2ccsc2n1	2	-2
Cc1cc(C(=O)N2CCN(c3cc(F)ccc3F)CC2)n[nH]1	1	-2
COc1cccc(C(=O)N2CCN(c3c4c(nc5ncnn35)CCCC4)CC2)c1	33	19
Cc1ccccc1CSC(C)c1nc2ccccc2c(=O)[nH]1 (stereo not given)	8	10
O=C(Cn1c(-c2ccccc2F)csc1=O)NCC1CCC1	-6	-6
Cc1ccccc1-n1c(SCc2ccc(C(=O)O)o2)nc2sccc2c1=O	29	14
O=C(COc1ccc2ccccc2c1)N=Nc1c(O)[nH]c2ccc(Cl)cc12	2	-1
Cc1cc(CC(C)n2cc3ncccc3c2O)n[nH]1 (stereo not given)	2	-3
COCCN(C(=O)c1ccc(NC(=O)C2CCC2)cc1)C1CCN(C)CC1	3	-5
CC1CN(C(=O)CCN2CCc3sccc3C2c2cccc(F)c2)CCN1C(=O)CC(C)(C)C (stereo not given)	14	1
Cc1ccccc1CSc1nnc(CNC(=O)c2cccc(Br)c2)n1-c1ccc(Cl)cc1Cl	-5	-4
COc1ccc(C(CC(=O)NCCc2ccccn2)c2cn(C)c3ccccc23)cc1OC (stereo not given)	2	13
Cc1ccccc1C1(CNC(=O)c2cncn2-c2ccccc2)CCOCC1	8	4
CCNC(=O)c1coc(CN(Cc2ccccc2)Cc2ccccc2OC)n1	-2	2
Cc1ccn(-c2ccc(C(=O)NC3CCCCC3)o2)n1	-1	-2
CCOc1ccc(NC(=O)CSc2nc3c(-c4ccccc4)c[nH]c3c(=O)n2C)cc1	0	-4
CCCc1cc(NC2CCCC2)n2nc3nc(C)cc(C)c3c2n1	1	9
COc1ccccc1OCC1CN(C(=O)CCOc2ccc(Cl)cc2)CCO1 (stereo not given)	22	14

Fetched one by one from above:
SMILES	NPYLR7 ag	NPYLR7 ag max-min
CCOc1ccc(NC(=O)CSc2nc3c(-c4ccccc4)c[nH]c3c(=O)n2C)cc1	0	-4
CCCc1cc(NC2CCCC2)n2nc3nc(C)cc(C)c3c2n1	1	9
COCCN(C(=O)c1ccc(NC(=O)C2CCC2)cc1)C1CCN(C)CC1	3	-5
COc1ccccc1OCC1CN(C(=O)CCOc2ccc(Cl)cc2)CCO1 (stereo not given)	22	14

New compounds follow
SMILES	NPYLR7 ag	NPYLR7 ag max-min
O=C(CSc1nc2ccccc2s1)N/N=C\c1cccc(O)c1	-7	-9
NC(=O)C1CCN(C(=O)c2cccc(-n3nccc3-c3ccccc3)c2)CC1	4	3
Cc1ccccc1-c1csc2nc(CN(Cc3ccccc3)CC(O)CN3CCOCC3)[nH]c(=O)c12 (stereo not given)	-1	5
Cc1nc(CN2CCN(C(=O)C3CCN(c4cccc(Br)c4)C3=O)CC2)n[nH]1 (stereo not given)	-1	-3
CCCC(=O)OCC(O)CNC(c1nc(-c2ccc3c(c2)OCO3)no1)C(C)CC (stereo not given)	6	9
COc1cc(C(C2Sc3ncnn3C2=O)N2CCC(O)CC2)cc(OC)c1OC (stereo not given)	6	5
COc1ccc(C)cc1NC(C)C(=O)N1C(C)CCCC1C (stereo not given)	8	3
CCOC(=O)[C@@H]1[C@@H](OC)C(=O)N(C)C12CCN(C(=O)c1csc(-c3cccs3)n1)CC2	24	22
CCOC(=O)C(c1cc(OC)ccc1OC)C1C=CC(NC(=O)c2c(-c3c(Cl)cccc3Cl)noc2C)C1 (stereo not given)	1	-5
COc1cccc(Cc2nsc(Oc3cccc(C(=O)NC(C)CCc4ccccc4)c3)n2)c1 (stereo not given)	-2	2

Brought forward from above: two compounds, then new ones.
SMILES	NPYLR7 ag	NPYLR7 ag max-min
CCOC(=O)C(c1cc(OC)ccc1OC)C1C=CC(NC(=O)c2c(-c3c(Cl)cccc3Cl)noc2C)C1 (stereo not given)	1	-5
COc1cccc(Cc2nsc(Oc3cccc(C(=O)NC(C)CCc4ccccc4)c3)n2)c1 (stereo not given)	-2	2
CCCCC(=O)Nc1c(-c2cccc(F)c2)nc2ccccn12	6	6
CCCCCCCC(=O)N1CCN(c2cc(Cl)nc(SCC(=O)NCc3ccc4c(c3)OCO4)n2)CC1C (stereo not given)	14	21
O=[N+]([O-])c1ccccc1C=NOCc1cccc(CON=Cc2ccccc2[N+](=O)[O-])c1	9	20
CC(=O)c1ccc(NC(=O)c2ccc(N3C(=O)CCC3=O)cc2)cc1	1	14
COc1cccc2c(=O)n(CCN3CCOCC3)cnc12	14	0

These rows are one share of the data; rates above refer to the full screens.
